Screens deposited in PubChem by PCMD.
Calb biofilm kill: mixture kills Candida albicans biofilm cells | inhibition, % at 7.6 µM | C. albicans biofilm persisters + clotrimazole, fluorescence viability; primary screen in compound mixtures of four per well | hit rate 0.02% among 120,000;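 active means inhibition above 30.3% in the primary screen of four-compound pools, then above 30% when the compound was retested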;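 further: compounds exposed to preformed 24 h biofilms for 48 h; the number belongs to the whole pool; some results filed as inactive read as strong as hits; inactives centre near 12; 0% = biofilm with clotrimazole alone and 100% = kill control; retested singly at about 60 µM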
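Probe or stimulus – Clotrimazole 50 µg/mL co-treatment · System – C. albicans biofilms · Schedule – 24 h biofilm formation, then 48 h compound exposure, 37 °C · Evaluation – percent inhibition of biofilm viability · Technique – 2-h Alamar Blue fluorescence, 535/590 nm excitation/emission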
* hit, by the source's call.

SMILES	Calb biofilm kill
CC(C)(C)CC(=O)NC(=S)Nc1ccccc1[N+](=O)[O-]	-15
CCOc1cc(N2CCOCC2)c(OCC)cc1NC(=O)c1cc(C)nc2ccccc12	13
CCN(CC(=O)Nc1ccc(Cl)c(C(F)(F)F)c1)CC(=O)NC1CCS(=O)(=O)C1 (stereo unspecified)	2
CNc1nc(Nc2ccccc2)nc(OCC(F)(F)F)n1	9
C(=Nc1ccc(Nc2ccccc2)cc1)c1ccc2ccccc2c1	5
COc1ccc(C(C)=O)cc1COc1ncnc2ccccc12	11
O=C(O)CCN1C(=O)c2ccc(NC(=O)CSc3ccccc3)cc2C1=O	-3
CC(C)(C)n1nnnc1C(c1cccnc1)N1CCOCC1 (stereo unspecified)	-2
Cc1ccc(NC(=O)CSC2=NN3CCCC(=O)N=C3S2)c(C)c1	7
CCc1nnc(NC(=O)c2cc(-c3ccncc3)nc3ccccc23)s1	19
CN(CCOC(=O)/C=C/c1ccco1)Cc1ccccc1	7
COC(=O)C(CO)NC(=O)C(C)NC(=O)CNC(=O)OCc1ccccc1 (stereo unspecified)	10
CCN1C/C(=C\c2cccc([N+](=O)[O-])c2)C(=O)/C(=C/c2cccc([N+](=O)[O-])c2)C1	8
Cc1ccc(C)c(S(=O)(=O)Nc2ccc(O)c(Sc3ncn[nH]3)c2)c1	8
Cc1cc(SCC(=O)NCCN2C(=O)CSC2=O)nc2ccccc12	29
Cc1ccc(/C=N/NC(=O)C2CC(=O)N(c3ccccc3)C2)s1 (stereo unspecified)	1
CCOc1c(Br)cc(/C=N\NC(=O)c2ccccc2)cc1OC	21
Cc1cc(C)cc(NC(=O)N2CCC(C(=O)c3ccc(F)cc3)CC2)c1	16
CC(=O)NN1C(=O)/C(=C/c2ccc(C(C)C)cc2)SC1=S	7
O=C(O)c1ccc(-c2nc3ccccc3[nH]2)cc1	17
N#Cc1cccn1-c1nccs1	13
CN1/C(=C/c2cc[n+](C)c3ccccc23)C=Cc2ccccc21	18
Cc1cc(C)c(C(=O)N2CCCC(C(=O)c3cc(F)ccc3F)C2)o1 (stereo unspecified)	16
CC1CCc2c(nc3ncnn3c2Nc2ccc(OC(F)(F)F)cc2)C1 (stereo unspecified)	14
CCCC1N2CC3([N+](=O)[O-])CN1CC([N+](=O)[O-])(C2)C3(C)C (stereo unspecified)	11
SMILES	Calb biofilm kill
CCCC(=O)c1cc2c(cc1NC(=O)c1ccccc1F)OCCO2	21
CC(C)(C)C(=O)Nc1c(Br)c(C2CC2)nn1-c1ccccc1	10
O=C(c1cccs1)N1CCCC1	5
O=C1[C@H]2[C@H](ON3CCCC[C@H]23)C(=O)N1c1cccc(C(F)(F)F)c1	6
Cc1cc(C)n(-c2ccc(F)cc2CN2CCN(C3CCCC3)C(CCO)C2)n1 (stereo unspecified)	2
O=C(Nc1cc(SCC(O)CO)cc([N+](=O)[O-])c1)c1ccc(-n2cnnn2)cc1 (stereo unspecified)	15
CCSc1nc2c(cnn2-c2ccccc2)c(=O)n1N	12
Cc1ccccc1Oc1nc2ccccc2n2cnnc12	17
COc1ccc(-c2ccc(SCC(=O)Nc3nnc(C)s3)nn2)cc1	6
COc1ccc(CC(=O)NCc2n[nH]c(=S)n2-c2cccc(Cl)c2)cc1	4
CC1C/C=C/C=C/C=C/C=C/C(O[C@@H]2O[C@H](C)[C@@H](O)[C@H](N)[C@@H]2O)CC2OC(O)(CC(O)CC3OC3/C=C/C(=O)O1)CC(O)C2C(=O)O (stereo partly specified)	19
COc1ccc(-c2nc3ccccc3o2)cc1NC(=O)CSc1ccc(Cl)cc1	19
CCCCCC(=O)NCC(C)NC(=O)CCCCC (stereo unspecified)	6
COc1ccc2[nH]c(C)c(CCNC(=S)Nc3cc(C)cc(C)c3)c2c1	6
COc1cc(OC)c(C2=NOC(C(=O)Nc3c(C)n(C)n(-c4ccccc4)c3=O)C2)cc1Cl (stereo unspecified)	3
CCn1cc(C(=O)Nc2ccc(F)c(F)c2)cn1	19
S=C(Nc1ccc(Cc2ccncc2)cc1)Nc1cccc(Cl)c1	11
CCc1c(C)nc(SC(C(=O)O)c2ccccc2)c(C#N)c1C (stereo unspecified)	16
CC(=O)NS(=O)(=O)c1ccc(NC(=O)C2C3C=CC(C3)C2C(=O)O)cc1 (stereo unspecified)	5
COc1ccc(NC(=O)CN2C(=O)C(c3ccccc3)=NC23CCCCCC3)cc1OC	8
COc1ccc(C2CC(c3ccc4ccccc4c3)=NN2C(=O)CNC2CCCCC2)cc1 (stereo unspecified)	5
CCN1CCN(c2ccc(NC(=O)c3cccc(F)c3)cc2Cl)CC1	8
COc1ccc(OCC(O)CNS(=O)(=O)c2ccc(C)cc2)cc1 (stereo unspecified)	9
O=C(NCc1ccc(Cl)cc1)c1ccc(CNc2c(N3CCOCC3)c(=O)c2=O)cc1	20
COc1ccc(C(CC(=O)N2CCCC(C)C2)c2c(OC)cc(OC)c3c(-c4ccccc4)cc(=O)oc23)cc1 (stereo unspecified)	24
SMILES	Calb biofilm kill
S=c1[nH]nc(-c2ccc(Cl)cc2)n1-c1ccc2c(c1)OCCO2	22
CC(C)(C)c1cc(N)on1	18
Cc1ccc(S(=O)(=O)N(CC(=O)NC2CCCC2)c2cccc(C)c2)cc1	14
CC(=O)c1cn(CCC(C)C)c(=O)[nH]c1=O	20
COC(CNC(=O)c1ccc2c(c1)ncn2-c1ccc(F)c(F)c1)OC	17
CCc1nnc(NS(=O)(=O)c2ccc(N3C(=O)c4ccc(C(=O)O)cc4C3=O)cc2)s1	19
CC(C)(C)c1ccc(/C=C/C(=O)Nc2ccncc2)cc1	-16
CC1(C)C(=O)NCCN1C(=O)CCC(=O)O	4
Cc1csc(SCC(=O)Nc2ccc3c(c2)OCCO3)n1	33
CCOc1nc(NC(=O)NS(=O)(=O)Oc2cccc(Cl)c2)nc(-c2ccccc2)n1	-6
O=C(O)COc1ccc(/C=N/NC(=O)COc2nsnc2N2CCOCC2)cc1	17
CC1(c2ccccc2)CC(C)(C)N(C(=O)CSc2nnc(N)s2)c2ccccc21 (stereo unspecified)	13
Cc1ccc(CNC(=O)C(C)C2Sc3ccccc3NC2=O)cc1 (stereo unspecified)	10
O=C(Nc1cccc(Cl)c1)c1ccc2c(c1)SC1=NS(=O)(=O)CCN12	-10
O=C(COc1ccc(Cl)cc1)N1CCN(C(=O)c2cccs2)CC1	18
COc1cc(NC(=S)Nc2ncccc2C)cc(OC)c1OC	6
Clc1ccc(CSc2nnc3c(n2)[nH]c2ccccc23)cc1	23
Cc1ccc(NC(=S)N/N=C/c2cccn2Cc2ccccc2F)cc1	16
O=C(Nc1cccc(F)c1)c1ccc(Cn2cc([N+](=O)[O-])cn2)o1	16
Cc1cccc(NC(=O)CSc2nc3c(c(=O)[nH]2)CCC3)c1C	11
O=C(/C=C/c1c(F)cccc1Cl)Nc1nn[nH]n1	3
CCOc1cc(N2CCOCC2)c(OCC)cc1NC(=O)CSc1nccc(C)n1	5
Cc1c(C(=O)/C=C/N(C)C)nnn1-c1ccc(Cl)c(Cl)c1	17
CCOC(=O)COc1nc(-c2ccco2)cc(-c2ccco2)c1C#N	1
CC1=C(C(=O)OCc2ccccc2)C(c2ccccc2)NC(=O)N1CCCCCC(=O)O (stereo unspecified)	13
SMILES	Calb biofilm kill
CCOC(=O)C1(Cc2cccc(OC)c2)CCN(CC2CC=CCC2)CC1 (stereo unspecified)	-4
CCCn1c(=O)c(Br)cn(-c2ccccc2C)c1=O	12
Cc1ccc(S(=O)(=O)N(C)c2nc3ccccc3[nH]c2=S)cc1	3
COC(=O)c1ccccc1S(=O)(=O)N1CCC(C(=O)OC(C)C(=O)NC(N)=O)CC1 (stereo unspecified)	14
CN(C)c1ccc(/C=C/c2ccc3ccccc3n2)cc1	19
CN(C1CCCCC1)S(=O)(=O)c1ccc(-c2ccccn2)s1	11
Cc1cc(C)c(S(=O)(=O)NC2CCN(Cc3ccccc3)CC2)c(C)c1	14
O=S(=O)(c1cccc2nsnc12)N1CCN(c2ccccc2F)CC1	4
O=C(NC(Cc1c[nH]c2ccccc12)C(=O)O)/C(=C\c1ccc2c(c1)OCO2)NC(=O)c1ccccc1 (stereo unspecified)	19
Cn1c(CCN2CCOCC2)nc2cc(NS(=O)(=O)c3ccccc3)ccc21	21
COc1ccc(Cn2c(=O)[nH]c3cc(OC)c(OC)cc3c2=O)cc1	10
O=[N+]([O-])c1cnn2cc(Br)cnc12	9
CN(c1ccccc1)c1nc(N)c([N+](=O)[O-])c(NCc2ccccc2)n1	22
N#Cc1c(-c2ccc(Br)cc2)cc(-c2cccnc2)nc1N	11
CCOc1ccc(NC(=O)CC2C(=O)N(C)C(=S)N2CCCc2ccccc2)cc1 (stereo unspecified)	14
Cc1cccc(C(=O)Oc2coc(CSc3nnc(NC(=O)C4CC4)s3)cc2=O)c1	14
COc1cccc(-c2nc(-c3ccc4c(c3)-c3ccccc3S4(=O)=O)c(-c3ccccc3)[nH]2)c1OC	8
Cc1ccc(-c2csc(Nc3ccc(S(N)(=O)=O)cc3)n2)o1	21
N#CC(C#N)=C(N)Nc1cccc(Cl)c1	5
COc1ccc(OC)c(/C=N/NC(=O)c2cnccn2)c1	16
Cc1oc(-c2ccc(-c3ccccc3)cc2)nc1CN(C)C1CCOC1 (stereo unspecified)	12
Nc1ccc(C(=O)NCC2(c3ccccc3)CCCC2)cc1	2
COc1ccc(C(=O)NCCn2cc(SCC(=O)Nc3nnc(C)s3)c3ccccc32)cc1	7
CCCCN1CC2([N+](=O)[O-])C=CC(=O)C([N+](=O)[O-])(C1)C2CC(=O)c1ccccc1 (stereo unspecified)	10
CCOC(=O)CNc1nc(Cl)nc(Nc2ccc(C)cc2)n1	7
SMILES	Calb biofilm kill
CC(=O)NCC1CCCN(c2nc3nonc3nc2N(C)Cc2ccccc2)C1 (stereo unspecified)	1
S=C(NCc1ccco1)Nc1ccc2c(c1)OCCO2	19
Cc1ccc(Nc2nc(-c3cccnc3)nc3ccccc23)cc1	2
COC(=O)Cc1ccc(NC(=O)c2ccccc2Br)cc1	14
CCOc1ccc(C(=O)N/N=C/c2ccccc2[N+](=O)[O-])cc1	16
O=C(O)CCC(=O)Nc1ccc(Br)cc1C(=O)c1ccccc1	29
O=C(NC(=S)Nc1ccc(CN2CCCCC2)cc1)c1cccc(OCc2ccccc2)c1	14
CCOC(=O)c1c(N)n(-c2ccc(N)cc2)c2nc3ccccc3nc12	7
CCOC(=O)C1=C(C)N(c2ccc(OC)cc2)C(=O)/C1=C\c1cccs1	7
CC(=O)c1ccccc1OC(=O)CCN1C(=O)c2ccccc2C1=O	4
Cc1ccc(NC(=O)NNC(=O)c2ccccc2)cc1	11
CCOC(=O)c1c(NC(=O)CSc2nc3ccccc3c(=O)n2-c2ccc(F)cc2)sc(C(C)=O)c1C	-1
CC(=O)Nc1ccc(NC(=O)CSc2nc(C)nc3sc(C)c(C)c23)cc1	7
Cc1ccccc1OCC(=O)Nc1ccccc1N1CCC(C)CC1	9
O=c1[nH]c(NNC(=S)NC2CCCCC2)nc2c1C1(CCCC1)Cc1ccccc1-2	7
COc1ccc(/C=C2\CCc3c2nc2ccccc2c3C(=O)O)cc1OC	15
CCCCCn1nc(C(=O)OCC(=O)c2c(N)n(C)c(=O)n(C)c2=O)c2ccccc2c1=O	-3
CSCC[C@H](NC(=O)Nc1ccccc1C)C(=O)O	28
COc1ccccc1CNc1nc(-c2cc(C)n(C)c2C)cs1	13
Nc1c(C(=O)Nc2cccc(F)c2)nnn1-c1cccc(C(F)(F)F)c1	12
COc1cc(C(=O)O)c2ccccc2n1	27
Cc1cc2c(NC(=O)Nc3ccc(F)cc3)cccc2nn1	14
CN(C)C(=O)c1sccc1Oc1ccc(F)cc1[N+](=O)[O-]	10
CC(=O)OCc1cc(-c2nc3ccccc3[nH]c2=O)nn1-c1ccc(Cl)cc1	17
CCOC(=O)c1c(C)n(C)c2cc(-c3ccc(C)cc3)c(O)cc12	9
Cc1nc(-c2nc(C(=O)NNS(C)(=O)=O)cs2)cs1	20
C=CCNC(=S)NCC=C	18
CCOC(=O)c1sc(CS(=O)(=O)c2ccc(Cl)cc2)nc1C	3
CCOC(=O)c1nnn(CC(=O)N2N=C(c3cccc4ccccc34)CC2c2ccccc2)c1C(=O)OCC (stereo unspecified)	14

The list is partial; the hit share may differ from the screen's.
